# MT1-MMP act inh – blocks activation of human MT1-MMP; AID 651647; P50281; HT1080 RFP-PRO-GFP cells, GFP/RFP ratio fluorescence, overnight; percent of plate control window, DMSO zero; 0.061% of 360,000 active; GFP/RFP ratio change, % at 20 µM;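 active = GFP/RFP ratio change of at least 30% with cell ATP level not reduced by more than half and red fluorescence within 50% of control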; also: strong numbers were not always called active
#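 Assay system: RFP-PRO-GFP reporter HT1080 cells; read-out basis: GFP/RFP fluorescence ratio; benchmarks: DMSO wells and RFP-L50D-GFP cells; doses: 20 µM single dose, 1% DMSO; schedule: overnight cell settling, then overnight compound exposure, 37 °C, 5% CO2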
# Env fusion inh – HIV envelope-mediated fusion inhibition; 1.1% of 360,000 active; inhibition, % at 12.3 µM; HeLa-JRFL Env/CEM21 cell fusion, luciferase;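 active = mean replicate inhibition score of at least 50 and every replicate individually at or above 50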;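 also: 0% = plate neutral controls and 100% = maraviroc near 300 nM; one replicate is shown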
# PABP polyA inh – PABP-poly(A) binding inhibition. PABP-poly(A) RNA binding, fluorescence polarization. P11940. inhibition, % at 35 µM. 1% of 290,000 active. AID 2014;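 active = 50% or more with normal probe brightness, or confirmed in later tests; about a fifth of its hits are not listed in these tables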;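 also: calls also rest on retests at 20 µM and on dose response follow-up; controls were probe without protein and protein plus probe with vehicle; some compounds called inactive have numbers as strong as hits; many hits fall short of the cut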
# Target sequence (P11940 whole entry, looked up): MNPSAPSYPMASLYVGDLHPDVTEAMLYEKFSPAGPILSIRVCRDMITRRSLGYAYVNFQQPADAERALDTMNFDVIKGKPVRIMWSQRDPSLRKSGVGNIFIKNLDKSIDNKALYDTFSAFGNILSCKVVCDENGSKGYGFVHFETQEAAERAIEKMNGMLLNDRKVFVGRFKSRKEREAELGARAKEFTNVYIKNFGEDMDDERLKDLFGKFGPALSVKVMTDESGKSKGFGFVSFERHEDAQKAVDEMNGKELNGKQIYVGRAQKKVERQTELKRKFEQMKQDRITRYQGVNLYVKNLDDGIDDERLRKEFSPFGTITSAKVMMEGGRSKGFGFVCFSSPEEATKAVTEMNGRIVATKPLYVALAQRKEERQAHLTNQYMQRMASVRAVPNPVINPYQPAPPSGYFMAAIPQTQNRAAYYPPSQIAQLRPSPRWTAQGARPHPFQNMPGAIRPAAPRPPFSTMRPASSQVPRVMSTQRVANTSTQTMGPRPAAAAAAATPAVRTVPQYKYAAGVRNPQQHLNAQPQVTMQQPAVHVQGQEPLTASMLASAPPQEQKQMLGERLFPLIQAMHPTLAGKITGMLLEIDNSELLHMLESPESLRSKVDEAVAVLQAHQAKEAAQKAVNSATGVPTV
# CSC inhib – blocks cancer stem cells; inhibition, % at 7.5 µM; 1.1% of 300,000 active; cancer stem cell-like cells viability, luminescence;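 active = mean at 75% or more and at least half the replicates too; tested in HMLE shEcad cells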;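 also: 0% = median of negative and 100% = median of positive control wells; the first replicate is given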
# Yeast UUG start – modulators of start codon recognition fidelity in yeast; S. cerevisiae UUG-firefly luciferase reporter, luminescence/redox ratio; activity score, % at 18.7 µM; 0.13% of 350,000 active; AID 602363;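 active = replicate mean at a twofold rise or more, about +100% in these data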;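 also: firefly luciferase made from a UUG start codon reports start codon fidelity; reporter light over untreated wells divided by growth signal over untreated wells; some hits fall short of that in this replicate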
# Rce1 inhib – inhibitors of yeast Ras-converting enzyme; calls only; 0.27% of 290,000 active; AID 2563; yeast membranes, quenched prenylated peptide cleavage fluorescence;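 active = fall in fluorescence gain of 50% or more versus controls, with final raw signal at or below 3038400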;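 also: plate controls were neutral control wells for no effect and wells lacking membranes for full effect; tested at 10 µM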
# Target sequence (Q03530 whole entry, looked up): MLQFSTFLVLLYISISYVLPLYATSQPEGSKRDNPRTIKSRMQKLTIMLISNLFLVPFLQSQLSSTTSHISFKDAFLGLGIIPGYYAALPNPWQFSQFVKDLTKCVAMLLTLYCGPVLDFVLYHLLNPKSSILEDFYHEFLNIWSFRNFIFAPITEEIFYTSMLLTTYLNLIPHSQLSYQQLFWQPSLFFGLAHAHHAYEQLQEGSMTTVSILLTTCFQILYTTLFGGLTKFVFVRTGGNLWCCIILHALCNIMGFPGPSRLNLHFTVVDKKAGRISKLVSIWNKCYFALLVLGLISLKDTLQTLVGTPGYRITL
# eIF4H FP inh – inhibitors of RNA binding by human eIF4H; inhibition, % at 35 µM; 0.94% of 290,000 active; eIF4H fluorescence polarization binding assay; Q15056;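 active = 50% or more with normal probe brightness, or confirmed in later tests; about a fifth of its hits are not listed in these tables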;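 also: calls also rest on retests at 20 µM and on dose response follow-up; 0% = protein and probe with vehicle and 100% = probe without protein; strong numbers were not always called active; many hits fall short of the cut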
# eIF4H FP inh retest – further read-out of eIF4H FP inh, marked with its call; inhibition, %; compound at 20 µM; confirmation average;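 mean of two retest wells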
# PABP polyA inh retest – recorded beside PABP polyA inh, whose call it bears; inhibition, %; compound at 20 µM; confirmation repeats;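 mean of two retest wells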
# MT1-MMP act inh RFP – also measured in MT1-MMP act inh; calls as there; RFP signal change, %; measured here: RFP expression control read;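 0 = vehicle wells; hits needed this value within 50% of zero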
# Numbers without * were called inactive; i = inactive; . = no result given. Some of the compounds tested; count on the stated rates, not on these rows.
SMILES,MT1-MMP act inh,MT1-MMP act inh RFP,Env fusion inh,PABP polyA inh,CSC inhib,Yeast UUG start,Rce1 inhib,eIF4H FP inh,others
C/C(=N\NC(=O)c1ccc(-n2cnnn2)cc1)c1ccc(Cl)cc1,2,3,-8,.,-8,-19,.,.,
CCN(CC)CCNC(=O)C(Oc1ccccc1)Oc1ccccc1,2,4,-8,4,-8,-11,i,-5,
Cc1cc(NC(=O)c2ccno2)no1,0,3,-38,1,2,-19,i,-9,
Cc1ccccc1C(=O)NCC(=O)NCC1(N2CCOCC2)CCCCC1,2,4,-3,.,-21,.,i,.,
CC(=O)c1cccc(NC(=O)c2ccc(NS(=O)(=O)c3c(C)noc3C)cc2)c1,4,1,-125,-1,8,-11,i,-1,
CCc1nc2ccc(C(=O)NCCCN3CCCC3=O)cn2c1N(CC)C(=O)NCCc1ccccc1,-1,0,21,.,.,9,.,.,
CCOC(=O)C1=C(C)NC(=O)NC1c1ccc(OC(=O)c2ccco2)c(OC)c1 (stereo not drawn),-1,9,.,-1,-3,.,i,1,
Cc1ccc(Cn2c(N3CCN(C)CC3)nc3c2c(=O)[nH]c(=O)n3C)cc1,-3,-2,-4,8,11,-14,i,11,
Cc1cc(NC(=O)CCC(=O)N(CC(=O)NCC2CCCO2)c2ccc(Cl)c(Cl)c2)no1 (stereo not drawn),1,-2,3,4,28,1,i,-8,
CC(C)(C)C1CCC(=O)C(C2(O)C(=O)Nc3ccccc32)C1 (stereo not drawn),-4,4,.,4,-12,-15,i,4,
Cc1nc(NC(=O)COC(=O)c2ccc(CO)cc2)c(Cl)cc1Cl,0,3,5,.,-5,-2,.,.,
COc1ccc([N+](=O)[O-])cc1N(CC(=O)NC(C(C)C)C(C)C)S(C)(=O)=O,-2,3,10,-5,-2,.,i,0,
S=c1[nH]nc(-c2cc(-c3ccsc3)n[nH]2)n1-c1ccccc1,3,-5,4,-5,-14,-12,i,-1,
CSc1ccccc1NC(=O)c1ccccn1,1,1,-9,3,11,.,i,0,
Fc1ccc(CN2CCSCC2)cc1F,-2,4,-1,0,-5,-8,i,8,
C#CCO[C@@H]1C[C@H](n2cnc3c(NC(=O)c4ccccc4)ncnc32)O[C@@H]1CO,-2,1,-9,7,5,-9,i,6,
Cc1c(CCC(C)C)c(-n2ccnc2C)n2c(nc3ccccc32)c1C#N,8,-1,.,-3,.,-6,i,4,
COC(=O)c1coc(-c2ccc(C)cc2)c1C(=O)OC,2,-4,.,-6,-1,-9,i,-4,
COc1ccc(/C=C/C(=O)NC(=S)Nc2ccccc2)cc1OC,2,2,3,0,12,-16,i,31,
Cc1ccc(NS(=O)(=O)c2ccc(-n3cccn3)cc2)cc1F,3,-3,-1,-8,-6,-13,i,-10,
O=C(COc1ccccc1)Nc1nc2ccccc2[nH]1,5,1,-90,-4,-3,-23,i,-7,
Cc1ccccc1OCC(=O)OCn1nnc2ccccc2c1=O,3,0,-6,3,-10,.,i,-5,
Cc1ccc(SCC(=O)N(C)CC(=O)Nc2cccc(F)c2)cc1,0,4,1,.,.,.,i,.,
CCC(=O)Nc1ccc(C(=O)Nc2cc(C)on2)cc1,-3,-7,.,-7,7,-18,i,-10,
C=CCN(c1ccccc1)S(=O)(=O)c1ccc(Cl)c(C(=O)OCC(=O)N(C)C2CCS(=O)(=O)C2)c1 (stereo not drawn),-6,0,1,-3,.,.,i,-2,
Cc1nc2c3c4c(sc3n3c(SCC(=O)NCc5ccco5)nnc3n2n1)COC(C)(C)C4,6,4,.,9,.,-13,.,-6,
CCOC(=O)N1CCN(C(=O)CN(Cc2ccc(Cl)cc2)S(=O)(=O)c2ccccc2)CC1,-2,-8,4,8,9,13,i,14,
Cc1cc2c(cc1S(=O)(=O)Nc1cccc(C)c1C)OCC(=O)N2,0,0,3,3,18,-9,i,0,
Cc1nn(Cc2ccc(Cl)cc2Cl)c(C)c1NC(=O)C1C2CCC(O2)C1C(=O)O (stereo not drawn),2,-6,.,1,-15,-6,i,5,
COc1ccc2c3c([nH]c2c1)C(C)N(CCC(=O)NN)CC3 (stereo not drawn),-3,3,-4,22,-4,2,i,5,
Cn1ncc(N=Cc2ccc([N+](=O)[O-])cc2)c1C(=O)Nc1ccccc1,-6,-9,-5,10,-17,.,i,6,
COc1cc(NC(=O)c2ccc(-c3c(C)noc3C)c3ccoc23)cc(OC)c1OC,21,1,11,.,.,5,.,.,
CCCn1c(N)nc2ccccc21,2,2,-34,17,-9,-12,i,-4,
Cc1cc(C)c(C#N)c(SCc2cn3c(C)cccc3n2)n1,5,5,-27,-19,-4,.,i,8,
O=C(NC(Nc1ccc(F)cc1)(C(F)(F)F)C(F)(F)F)c1cccnc1,7,5,0,0,-6,-13,i,6,
Cc1ccc(NC(=O)CNC2CCS(=O)(=O)C2)cc1C (stereo not drawn),3,3,3,-3,.,.,i,1,
NS(=O)(=O)c1ccc(CNC(=O)c2ccc(S(=O)(=O)C(F)F)cc2)cc1,2,0,7,-8,-3,-9,i,-7,
COC(=O)C(C)NS(=O)(=O)c1ccc(NC(C)=O)cc1 (stereo not drawn),3,6,.,8,10,-17,i,-13,
Cc1nc(NC(=O)c2ccccc2)sc1-c1csc(N)n1,13,-1,-64,-8,.,-20,i,-8,
O=C(NCc1ccccn1)c1ccc(OC2CCN(Cc3ccc(Cl)s3)CC2)cc1,-2,-6,-7,-1,11,-20,i,10,
Cc1ccc(S(=O)(=O)N2CCCC(C(=O)N3CCCc4ccccc43)C2)cc1 (stereo not drawn),-3,-4,6,-5,-1,-6,i,-5,
CCOC(=O)NNC1CC(=O)N(c2ccccc2)C1=O (stereo not drawn),0,3,0,-10,5,.,i,6,
CCN(CC)c1ccc(/C=N/NC(=O)c2ccc([N+](=O)[O-])cc2)cc1,2,1,-5,-6,-10,.,i,8,
O=C(CC1CC2CCC1C2)NCCc1ccc(Cl)cc1 (stereo not drawn),-2,-2,9,-6,-4,6,.,-14,
CC(C)(C)OC(=O)N[C@H]1C=C[C@@H](OC(=O)CC(=O)OCC(F)(F)F)C1,2,10,0,.,.,-6,.,.,
C[C@@H]1CCC[C@@]2(O[C@H](CCO)C[C@@H](O)[C@@H]2O)O1,4,7,11,-10,-6,-1,i,0,
Cc1ccccc1OCC(=O)N/N=C/c1ccccn1,-1,5,-2,-6,1,.,i,3,
Cc1ccc(-c2nnc(SC(C)C(=O)NCC3CCCO3)nc2-c2ccc(C)cc2)cc1 (stereo not drawn),-7,-2,6,.,5,24,i,.,
COc1ccc(OC)c(C2CC(=O)N3CN(c4ccc(C)c(Cl)c4)CSC3=C2C#N)c1 (stereo not drawn),4,8,2,57,1,-4,i,9,eIF4H FP inh retest=21;PABP polyA inh retest=46
O=[N+]([O-])/C=C1\C=CC=CN1Cc1ccc(Cl)cc1,2,0,3,-5,-2,-7,i,-5,
Cc1cc2ncc(-c3ccccc3)nc2cc1C,3,-1,-199,5,2,-12,i,1,
O=C(c1cnc2n(c1=O)CCS2)N1CCN(c2ccc(Cl)c(Cl)c2)CC1,2,1,.,-16,11,3,i,-13,
N#Cc1ccc(-c2ccco2)nc1SCc1ccccc1,-2,3,-81,8,20,5,i,2,
COc1cc(OC)cc(-c2sc3ccc(OC)cc3c2-c2ccc3cc[nH]c3c2)c1,3,-2,-7,.,137*,1,.,.,
Cc1ccccc1NC(=O)OCc1cccnc1Oc1ccc(Cl)cc1,-5,-4,25,6,26,-12,i,-5,
CCCCCn1c(CN2CCN(Cc3ccccc3)CC2)nc2c1c(=O)[nH]c(=O)n2C,-5,-4,-7,-5,3,10,i,3,
N#Cc1cc(-c2ccccc2)cn(Cc2c(Cl)cccc2Cl)c1=O,-1,-3,4,-2,-2,-6,i,4,
O=C(c1ccco1)N1CCCC(c2nc(-c3ccc(S(=O)(=O)NCc4ccccc4)cc3)no2)C1 (stereo not drawn),-8,-17,65*,0,38,.,i,-15,
O=C(O)c1ccc(Cl)c(NC(=S)NC(=O)c2ccccc2[N+](=O)[O-])c1,3,3,10,5,7,.,i,-1,
COc1ccc(N(C)C(=O)CN(C)S(=O)(=O)c2ccc3c(c2)c(=O)n(C)c(=O)n3C)c(OC)c1,1,4,0,2,-10,-10,i,-1,
# Following part.
SMILES,MT1-MMP act inh,MT1-MMP act inh RFP,Env fusion inh,PABP polyA inh,CSC inhib,Yeast UUG start,Rce1 inhib,eIF4H FP inh,others
Cc1nc(NC2=NCN(Cc3cccnc3)CN2)nc2ccccc12,2,-2,39,4,.,-15,.,10,
O=S(=O)(Nc1ccon1)c1ccc(Br)s1,-6,0,3,34,0,-18,i,-7,
CCS(=O)(=O)N1CCC(C(=O)Nc2ccc(C(C)=O)cc2)CC1,0,4,-26,-3,6,0,i,4,
COc1ccc(CCN2C(=O)C3C(C2=O)C2C=CC3C23CC3)cc1OC (stereo not drawn),7,5,-12,-13,0,-6,i,8,
COc1cccc(C2C(C(N)=O)=C(C)Nc3nc(CCCO)nn32)c1 (stereo not drawn),-3,-3,-14,0,-1,-3,i,12,
COc1ccc(-c2nn(-c3ccccc3)cc2C(=O)Nc2cccc(C(=O)O)c2)cc1[N+](=O)[O-],1,4,-4,4,-4,-16,.,-4,
CCn1cc(CN(C)S(=O)(=O)c2ccc3ccccc3c2)c(C)n1,-8,-22,25,0,11,-18,i,11,
O=C(OCCN(C1=NS(=O)(=O)c2ccccc21)c1ccc(Cl)cc1)c1ccco1,0,-3,.,0,-14,-11,i,-1,
OC(CSc1ccccc1Cl)CN1CCN(c2ccc(F)cc2)CC1 (stereo not drawn),3,-5,34,-1,1,-5,.,-13,

# Entries listed so far that contain an aryl methoxy group, in the order listed:
SMILES,MT1-MMP act inh,MT1-MMP act inh RFP,Env fusion inh,PABP polyA inh,CSC inhib,Yeast UUG start,Rce1 inhib,eIF4H FP inh,others
CCOC(=O)C1=C(C)NC(=O)NC1c1ccc(OC(=O)c2ccco2)c(OC)c1 (stereo not drawn),-1,9,.,-1,-3,.,i,1,
COc1ccc([N+](=O)[O-])cc1N(CC(=O)NC(C(C)C)C(C)C)S(C)(=O)=O,-2,3,10,-5,-2,.,i,0,
COc1ccc(/C=C/C(=O)NC(=S)Nc2ccccc2)cc1OC,2,2,3,0,12,-16,i,31,
COc1ccc2c3c([nH]c2c1)C(C)N(CCC(=O)NN)CC3 (stereo not drawn),-3,3,-4,22,-4,2,i,5,
COc1cc(NC(=O)c2ccc(-c3c(C)noc3C)c3ccoc23)cc(OC)c1OC,21,1,11,.,.,5,.,.,
COc1ccc(OC)c(C2CC(=O)N3CN(c4ccc(C)c(Cl)c4)CSC3=C2C#N)c1 (stereo not drawn),4,8,2,57,1,-4,i,9,eIF4H FP inh retest=21;PABP polyA inh retest=46
COc1cc(OC)cc(-c2sc3ccc(OC)cc3c2-c2ccc3cc[nH]c3c2)c1,3,-2,-7,.,137*,1,.,.,
COc1ccc(N(C)C(=O)CN(C)S(=O)(=O)c2ccc3c(c2)c(=O)n(C)c(=O)n3C)c(OC)c1,1,4,0,2,-10,-10,i,-1,
COc1ccc(CCN2C(=O)C3C(C2=O)C2C=CC3C23CC3)cc1OC (stereo not drawn),7,5,-12,-13,0,-6,i,8,
COc1cccc(C2C(C(N)=O)=C(C)Nc3nc(CCCO)nn32)c1 (stereo not drawn),-3,-3,-14,0,-1,-3,i,12,
COc1ccc(-c2nn(-c3ccccc3)cc2C(=O)Nc2cccc(C(=O)O)c2)cc1[N+](=O)[O-],1,4,-4,4,-4,-16,.,-4,

# High-throughput results (PubChem BioAssay)
